KCNQ2 pot: potentiators of rat KCNQ2 potassium channel. O88943. CHO-K1 KCNQ2, FluxOR thallium flux fluorescence; active compounds read high. B-score at 10 µM. actives 0.54% (n = 310,000). AID 2239;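 active = fluorescence ratio B-score at least 3 SD of library B-scores, with initial fluorescence B-score within 3 SD, cut at about 5.3 in these data; same plate scores as AID 2156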;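 also: B-score of peak minus minimum over baseline fluorescence ratio after K+ and Tl+ stimulus; positive B-score means potentiation of KCNQ2 with more thallium influx and brighter signal; only the inactives scoring about 0 or higher are listed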
Target sequence (O88943 whole entry, looked up): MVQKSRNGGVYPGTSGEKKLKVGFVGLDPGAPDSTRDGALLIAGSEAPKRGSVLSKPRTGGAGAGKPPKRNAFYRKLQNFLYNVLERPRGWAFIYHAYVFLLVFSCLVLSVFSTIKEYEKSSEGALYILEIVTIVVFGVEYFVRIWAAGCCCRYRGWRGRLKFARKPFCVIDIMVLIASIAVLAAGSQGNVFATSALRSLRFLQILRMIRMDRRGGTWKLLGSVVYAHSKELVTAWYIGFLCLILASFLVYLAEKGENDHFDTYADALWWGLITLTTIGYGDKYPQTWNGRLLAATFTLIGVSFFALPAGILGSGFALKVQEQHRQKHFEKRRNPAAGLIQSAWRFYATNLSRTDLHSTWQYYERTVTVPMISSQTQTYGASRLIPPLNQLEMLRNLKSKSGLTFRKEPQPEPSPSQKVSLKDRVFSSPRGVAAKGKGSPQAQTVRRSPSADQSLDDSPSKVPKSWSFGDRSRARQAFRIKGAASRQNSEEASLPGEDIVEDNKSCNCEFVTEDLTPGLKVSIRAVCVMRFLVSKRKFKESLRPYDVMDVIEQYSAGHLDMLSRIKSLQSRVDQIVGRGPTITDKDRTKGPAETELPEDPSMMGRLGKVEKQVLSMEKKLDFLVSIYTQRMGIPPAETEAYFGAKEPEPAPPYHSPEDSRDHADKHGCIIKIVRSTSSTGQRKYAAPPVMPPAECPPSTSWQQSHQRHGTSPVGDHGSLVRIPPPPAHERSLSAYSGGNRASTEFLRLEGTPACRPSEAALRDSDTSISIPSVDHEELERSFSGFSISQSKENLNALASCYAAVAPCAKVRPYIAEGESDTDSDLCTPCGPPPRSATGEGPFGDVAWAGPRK
KCNQ2 pot baseline: recorded beside KCNQ2 pot, whose call it bears; B-score; compound at 10 µM; measured here: initial fluorescence intensity artifact check;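 brightness before thallium and not channel activity; 0 = typical well and far values either way flag optical interference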
Numbers without * were called inactive.

KCNQ2 pot | KCNQ2 pot baseline | SMILES
0.94 | -2.8 | Cc1cc(C)n(C(=O)Cn2nc(C(F)F)cc2C)n1
0.5 | 0.14 | O=C(O)CNS(=O)(=O)c1cccc2nsnc12
0.19 | 0.81 | O=C(c1cccnc1NCc1ccc(F)cc1)N1CCOCC1
2.2 | 0.28 | CCOc1ccc(S(=O)(=O)N2CCC(C(=O)NC3CC3)CC2)cc1C
0.56 | -2.9 | CCOC(=O)Cc1ccc2sc(-c3ccccc3)nc2c1
1.3 | 2.5 | C=CCN1C(=O)N(c2ccc(Cl)cc2)C(=O)C1CC(=O)Nc1ccc(F)cc1 (centres undefined)
2.5 | 0.13 | CCOc1ccccc1-c1cc(C(=O)N/N=C/c2ccc(O)c(OC)c2)c2ccccc2n1
0.43 | 0.68 | COc1ccc(CCn2c(O)c(C=Nc3cccc(F)c3)c(=O)[nH]c2=O)cc1OC
0.2 | -2.2 | COc1ccc(NC(=O)CSc2nncc(=O)n2N)cc1OC
1.6 | -0.02 | O=C(CN1CCN(c2ccccc2F)CC1)Nc1nnc(C(F)(F)F)s1
1 | -0.5 | COc1ccc2oc(C(=O)NCc3ccco3)c(C)c2c1
1.1 | -0.12 | COc1ccc(NC(=O)CN(C)S(=O)(=O)c2cnc[nH]2)cc1Cl
0.04 | 1.6 | COc1ccc(N2CCN(C(=O)CCC(=O)N3Cc4ccccc4Oc4ncccc43)CC2)cc1
0.58 | -0.48 | CC1CCCCC12NC(=S)N(c1ccccc1)N2 (centres undefined)
0.65 | -0.33 | OCCCNc1nnc(-c2ccccc2)c2ccccc12
0.3 | -0.95 | O=C(Nc1ccc(Br)cc1)c1ccccc1CC[N+](=O)[O-]
0.65 | -1.5 | C/C(=N\NC(=O)c1nn(C)cc1Br)c1cccc(NC(=O)C2CCCC2)c1
0.44 | -1.5 | O=C(COC(=O)C1CCN(S(=O)(=O)c2ccc3c(c2)OCCO3)CC1)Nc1cc(C(F)(F)F)ccc1Cl
1.4 | 0.68 | COc1ccc(S(=O)(=O)NCCSC(C)(C)C)cc1
0.02 | 0.03 | CCOC(=O)c1cnc2c(-c3ccccc3OC)c(C)nn2c1C
0.56 | -2 | O=C(O)c1cc(S(=O)(=O)NCc2ccco2)c(Cl)cc1Cl
2 | -2.1 | COc1ccc(C)cc1NC(=O)C1CCCN(S(=O)(=O)c2cnc[nH]2)C1 (centres undefined)
0.46 | 0.03 | COC(=O)C1=C(C)N(Cc2ccccc2)C(=NCCc2ccccn2)N[C@H]1c1cccc(F)c1
8.8* | -0.42* | CC(C)(C)c1ccc(C(=O)NC(=S)N2CCCCCC2)cc1
0.04 | 1.5 | O=S(=O)(c1cccc2nsnc12)N1CCN(C/C=C/c2ccccc2)CC1
1.1 | -0.64 | COc1ccccc1NC(=O)c1ccc(S(=O)(=O)N2CCOCC2)cc1
1.8 | 2 | OCCN1CCN(CC#CCC(c2ccccc2)c2ccccc2)CC1
0.41 | -0.8 | CN(CC(=O)Nc1ccccc1N1CCCC1)S(=O)(=O)c1ccc(F)cc1
2.6 | 1.1 | COc1cc([N+](=O)[O-])cc(/C=N/NC(=O)CSc2ccccn2)c1O
2.3 | 1.1 | CCn1c(COc2cc(C)ccc2C(C)C)nnc1SCC(=O)Nc1nccs1
0.64 | -1.2 | COc1ccc(NC(=O)c2c([N+](=O)[O-])c(C(C)(C)C)nn2C)cc1
0.82 | -0.38 | CCC(C)(C)C1CCC(=NNC(=S)Nc2cccnc2)CC1 (centres undefined)
0.53 | -0.21 | Cc1nnc(C)c2c(C)n(-c3ccc(Cl)c(N)c3)c(C)c12
0.52 | -0.84 | Cc1c(NC(=O)C(C)N2C(=O)NC3(CCC(C)CC3)C2=O)c(=O)n(-c2ccccc2)n1C (centres undefined)
0.44 | -0.51 | COc1cccc(-c2csc(N3CCN(C(=S)Nc4ccc(Cl)cc4)CC3)n2)c1
0.44 | -0.06 | CCCOc1ccc(C(CC(=O)O)NS(=O)(=O)c2ccc(NC(C)=O)cc2)cc1 (centres undefined)

Of the compounds above, three have a tert-butyl group:
KCNQ2 pot | KCNQ2 pot baseline | SMILES
1.4 | 0.68 | COc1ccc(S(=O)(=O)NCCSC(C)(C)C)cc1
8.8* | -0.42* | CC(C)(C)c1ccc(C(=O)NC(=S)N2CCCCCC2)cc1
0.64 | -1.2 | COc1ccc(NC(=O)c2c([N+](=O)[O-])c(C(C)(C)C)nn2C)cc1

(cont.)
KCNQ2 pot | KCNQ2 pot baseline | SMILES
0.73 | -1.2 | COc1ccc(N(CC(=O)NCCSc2ccccn2)S(=O)(=O)c2ccccc2)cc1Cl
0.4 | 0.15 | CCCN(CCC)S(=O)(=O)c1ccc(C(=O)Nc2nc3c(s2)CCc2ccccc2-3)cc1
0.72 | -1.3 | Oc1ccc(/C=C/c2ccc3ccccc3n2)cc1
0.21 | -0.72 | NC(=O)c1cc(S(=O)(=O)Nc2ccccc2)cs1
0.04 | 0.64 | CC(=O)Nc1ccc(NC(=O)c2c(-c3ccccc3)noc2C)cn1
0.07 | -0.99 | COc1ccc(OCCNC(=O)c2ccccc2OCC(=O)Nc2ccc(NC(C)=O)cc2)cc1
1.4 | -0.04 | CCc1cc(=O)[nH]c(SCc2cccnc2)n1
0.76 | -2.6 | CCN(CC)S(=O)(=O)c1cc(NC(=O)CSc2nnc(-c3cccs3)o2)ccc1C
1.6 | -0.36 | O=C(CCCc1nc(-c2ccccc2)no1)Nc1cccnc1
0.83 | 0.1 | Cc1[nH]c(=O)c(C#N)c(C)c1CCC(=O)Nc1cc(S(C)(=O)=O)ccc1Cl
0.42 | -0.58 | CCOC(=O)C1=C(N)OC2=C(C(=O)CCC2)C1c1cccnc1 (centres undefined)
0.1 | 0.01 | COc1ccc(C2C(C(=O)c3ccco3)=C(O)C(=O)N2CC2CCCO2)cc1 (centres undefined)

Record cards, from the list above. Screens in order: KCNQ2 pot, KCNQ2 pot baseline
`O=C(CCCc1nc(-c2ccccc2)no1)Nc1cccnc1` as listed: 1.6, -0.36
`CCOC(=O)C1=C(N)OC2=C(C(=O)CCC2)C1c1cccnc1` (centres undefined) as listed: 0.42, -0.58
`CCCN(CCC)S(=O)(=O)c1ccc(C(=O)Nc2nc3c(s2)CCc2ccccc2-3)cc1` as listed: 0.4, 0.15

(more compounds)
KCNQ2 pot | KCNQ2 pot baseline | SMILES
0.4 | -0.08 | CCNC(=O)/C(=C\c1ccccc1)NC(=O)/C=C/c1ccccc1
0.32 | -0.16 | CCOC(=O)c1nnn(-c2nonc2N)c1-c1ccccc1
0.11 | 0.54 | Cc1noc(C)c1CSc1cc(C)c2ccccc2n1
0.33 | -0.31 | CN(CC(=O)Nc1c(Cl)cccc1Cl)C(=O)Cc1ccc2c(c1)CCC2
1.1 | 0.26 | CC1CCN(S(=O)(=O)c2ccc3c(c2)N(CC(=O)NCCCOC(C)C)C(=O)CO3)CC1
0.54 | -1.4 | CC1(C)Cc2c(cnn2-c2cccc(F)c2)C(NC(=O)CN2CCCC2=O)C1 (centres undefined)
1.8 | -0.79 | O=C(/C=C/c1ccccc1)NCC(=O)N/N=C/c1ccco1
0.64 | 0.03 | O=C(NNC(=O)c1sccc1-n1cccc1)Nc1ccccc1
0.63 | -0.24 | COC(=O)CCCC1=CC2=C(c3ccccc3)C(=O)C(C)(OC(=O)C3CCCC3)C(=O)C2=CN1CCCCO (centres undefined)
1.8 | -0.22 | COc1ccc(-n2c(CNC(=O)COc3ccc(Cl)cc3)n[nH]c2=S)cc1
0.56 | 0.32 | COCCn1nnnc1C(c1ccc(Cl)cc1)N1CCN(C(=O)c2ccco2)CC1 (centres undefined)
0.09 | -0.58 | O=C(O)COc1ccc2c(c1)OCCO2
1.2 | 0 | CS(=O)(=O)N1CCc2cc(S(=O)(=O)Nc3ccc4c(c3)OCCO4)ccc21
1 | -0.91 | O=C(C(c1ccccc1)c1ccccc1)N1CC[C@@]2(O)CCCC[C@H]2C1
0.11 | -0.43 | CCNS(=O)(=O)c1cc(-c2nnc(OC)c3ccccc23)ccc1C
0.14 | 2.8 | COc1ccc(C)cc1S(=O)(=O)N(C)CC(=O)N1CCCC1
0.02 | 1.6 | COC(=O)c1cc(S(=O)(=O)N2CCC(C)CC2)ccc1F
0.39 | 0.77 | Cc1ccc(SC(CC(=O)c2ccc(C)cc2)C(=O)O)cc1 (centres undefined)
0.67 | -3.3 | Cc1cc(C)c2c(=O)[nH]c(SCC(=O)c3ccc(C(C)C)cc3)nc2n1
0.04 | 0.09 | COc1ccc(OC)c(NC(=O)[C@@H]2CCCN2C(=O)c2cccs2)c1
1.2 | -1.3 | CCOc1ccc(CNC(=O)C(C)n2nc(C)c3c(C)n(-c4ccccc4)nc3c2=O)cc1 (centres undefined)
0.3 | 1.2 | C=CCN1C(=O)C(Cc2ccc(OC)cc2)SC1=Nc1ccc(C(=O)O)cc1 (centres undefined)
1.5 | -0.23 | CCOC(=O)N1CCC(NC(=O)C2CCN(S(=O)(=O)c3c(C)noc3C)CC2)CC1
0.5 | 0.34 | CCC(CC)C(=O)Nc1cccc(C(=O)N2CCOCC2)c1
0.41 | -0.78 | CC(c1ccccc1)n1cc(C(=O)NCCN2CCOCC2)nn1 (centres undefined)
0.18 | 0.04 | Cc1[nH]c2ccccc2c1N=Nc1cccc(C(=O)O)c1
0.52 | -1.3 | Cc1c(Cl)cccc1N1CC(C(=O)Nc2nccs2)CC1=O (centres undefined)
1.6 | -0.22 | CC(=O)Nc1ccccc1S(=O)(=O)CC1CC1(Cl)Cl (centres undefined)
0.54 | 0.01 | CC(C(=O)N1CCN(C)CC1)N1C(=O)c2ccccc2C1=O (centres undefined)
1.8 | -0.72 | NS(=O)(=O)c1ccc(CNC(=O)/C=C/c2ccc(Cl)c(Cl)c2)cc1
0.51 | 0.08 | CCOC(=O)c1ccc2c(c1)NC(=O)C(N1CCN(c3ccc(OC)cc3)CC1)S2 (centres undefined)
3 | -1.8 | CCNc1nc(Nc2ccc(C)c(Cl)c2)c2cnn(C)c2n1
0.07 | -0.47 | Cc1ccc(C(=O)Nc2cccnc2)cc1S(=O)(=O)N1CCCCC1
0.46 | 1.2 | COc1ccc(NC(C)C(=O)N2CCN(Cc3ccccc3)CC2)cc1 (centres undefined)
0.11 | 0.31 | Cc1ccc(Nc2ncnc3sc(C)c(C)c23)cc1
1.5 | 1.2 | O=C(COC(=O)c1cn(-c2ccccc2)nc1-c1cccnc1)NC1CC1
0.56 | -0.71 | Cc1ccc(S(=O)(=O)N2CCOCC2)c(C)c1-n1cnnn1
0.57 | -1.3 | Cc1[nH]c2ccc(C(=O)OC(C)C(=O)NCc3ccccc3)cc2c1C (centres undefined)
0.02 | 0.09 | O=C(NN1CCOCC1)c1ccccc1F
0.08 | 0.31 | CCOC(=O)c1ccc(NC(=O)CSc2nc(C)cc(=O)[nH]2)cc1
3 | -0.12 | COc1ccccc1NC(=O)N1c2ccccc2NC(=O)CC1C (centres undefined)
0.68 | 0.21 | CC(C)(C)c1nc(-c2ccccc2)nc2c1OCCC2
0.25 | -0.53 | Cc1nc(COc2ccc(C(=O)Nc3ccccc3N3CCOCC3)cc2)cs1
0.23 | 0.02 | Cc1ccc(SCC(=O)OCC(=O)NCC2CCCCC2)cc1C
2.6 | -0.55 | O=C(O)CSc1c2c(nc3cc(C(=O)Nc4cccc(C(F)(F)F)c4)ccc13)CCC2
0.16 | -0.08 | CCOC(=O)CC/C(C)=N\N=C1\SC(CC(=O)O)C(=O)N1c1ccccc1 (centres undefined)
0.32 | 1.9 | Cc1cc(NC(=O)Cn2c(C)nc3ccccc3c2=O)ccc1Br
1.2 | 1.8 | C#CCSc1[nH]c(=O)cc(C)c1C#N
1.5 | -1 | CCNC(=S)N1CCN(CC(=O)Nc2ccc(Br)cc2)CC1
0.6 | 0.28 | Cc1cccc(CSc2ncc(CO)n2C)c1
0.54 | -2.9 | CCCCNC(=O)CSc1nc2n[nH]c(C)c2c(=N)n1-c1cccc(Cl)c1C
0.44 | 0.25 | Cc1ccccc1-n1ccnc1SCC(=O)NC1CCCC1
0.05 | -0.91 | CC(=O)N1CN(S(=O)(=O)c2ccc(C)cc2)CC1C (centres undefined)
0.03 | -0.54 | Cc1ccc(S(=O)(=O)Nc2cc3c4c(c2)CCC(=O)N4CCC3)cc1
0.11 | -0.9 | c1ccc(-c2nnc3ccc(N4CCC5(CC4)OCCO5)nn23)cc1
2.7 | -1.5 | CC(=O)N=C(N)Sc1nc2ccccc2[nH]1
1.1 | 0.87 | CC(C)CC(=O)c1c[nH]c(C(=O)NCCCn2ccnc2)c1
0.05 | -0.67 | CCN(C(=O)CSc1nnc2ccccn12)C1CCS(=O)(=O)C1 (centres undefined)
3 | -0.77 | CCc1nn(-c2cc(Cl)ccc2OC)c2c1C(=O)CCC2
5.9* | 1.4* | CC(=O)Oc1c(-c2ccco2)oc2ccccc2c1=O

Remaining list, next part:
KCNQ2 pot | KCNQ2 pot baseline | SMILES
1.1 | 0.09 | CCOC(=O)c1ccc(Nc2nc(C)cc(=O)[nH]2)cc1
0.42 | 2.5 | CCCCCC/C=N/Nc1nnc(Cc2ccc(OC)c(OC)c2)c(=O)[nH]1
0.36 | -1.1 | CCN1CCN(C(C)CCc2ccccc2)CC1 (centres undefined)
1 | 0.24 | O=C(CCNS(=O)(=O)c1ccccc1C(F)(F)F)N1CCN(S(=O)(=O)c2cccc(Cl)c2)CC1
0.04 | -0.78 | CCOC(=O)c1cnc2nc(SC)nn2c1N
0.73 | -1 | CCC(=O)Nc1ccc(C(=O)COC(=O)C(CCSC)NC(=O)COc2ccccc2)cc1 (centres undefined)
0.04 | 1.2 | O=C(Oc1ccc(/C=N/Nc2nc(N3CCCCC3)nc(N3CCCCC3)n2)cc1)c1ccco1
0.68 | -0.28 | CCOc1ccccc1N(CC(=O)Nc1ccccc1C(=O)OC)S(C)(=O)=O
4.3 | -0.97 | Cn1ncc(S(=O)(=O)Cc2ccccc2)c(Cl)c1=O
25* | -0.3* | CCOc1cc(N2CCOCC2)c(OCC)cc1NC(=O)CCC1CCCC1
0.66 | -1.2 | COc1ccc(NS(=O)(=O)c2cccc(-c3nnc4n3CCCCC4)c2)cc1

Source: PubChem

This is a subset. The share of hits here may be higher or lower than overall.
